From PubChem
Anaer choline gr – choline-fed anaerobic bacterial growth inhibition. AID 1963822. actives 0.2% (n = 55,000). Gram-negative bacterium anaerobic choline minimal medium, absorbance growth; hits give low values; many inactives read as strong as hits in the columns shown. calls only;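 active = growth z-score on choline under -2 at 7 or 20 h with little or no fall on glycerol, limits in tiers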;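 note: stock transfer was 300 nL into about 50 µL; the organism is E. coli; final concentration not given here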
Anaer choline gr early – further read-out of Anaer choline gr, marked with its call; z-score; measured here: choline growth z-score, timepoint 1;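 score of optical density at 7 h as mean of two plates; lower means less growth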
The depositor's hits bear a star; i = inactive; & = joins results of further samples. A portion of the library; the hit share may differ from the screen's.

Structure	Anaer choline gr	Anaer choline gr early
CC(C(=O)NCCCN1CCC(N2CCCCC2)CC1)N1C(=O)CCCc2ccccc21 (configuration not stated)	i	-0.4
CC1CCN(C(=O)C2CCN(c3ccc4cc(S(=O)(=O)N5CCCCC5)ccc4n3)CC2)CC1	i	0.46
CC1(C(=O)NC2CCCC2)CCC(=O)N1Cc1ccccc1Cl (configuration not stated)	i	0.49
CCC(=O)N1CCN(c2nc3ccc(C)cc3cc2-c2noc(-c3ccccc3)n2)CC1	i	-0.3
Clc1ccc(OCCCn2c(COc3ccccc3)nc3ccccc32)cc1	i	2.05
CCOc1ccc(CNC(=O)C2CCCN2S(=O)(=O)c2ccc3c(c2)CCCC(=O)N3)cc1 (configuration not stated)	i	-1.46
CCNc1nc(C(N)=O)c(NC(=O)c2cc(-c3ccccc3)nc3c(C)cccc23)s1	i	-2.39
COc1ccc(OC)c(NC(=O)c2cccn2-c2cccnc2)c1	i	-0.48
Cc1nnc(-c2c(S(=O)(=O)NC3CCCCCC3)c(C)n(C)c2C)o1	i	0.28
CCC(SC1=Nc2ccccc2C2=NC(C)C(=O)N12)C(=O)Nc1ccccc1 (configuration not stated)	i	0.1

Remaining list, next part.
Structure	Anaer choline gr	Anaer choline gr early
Cc1ccc(NC(=O)c2cc(C)on2)cc1	i	-1.83
CCCN(CCC)C(=O)c1cc(NS(=O)(=O)c2cc(C)c(C)cc2C)cnc1N1CCNCC1	i	0.5
Cc1ccc(-c2ccnc3c(C(=O)NCc4ccc5c(c4)OCO5)cnn23)cc1C	i	-0.03
C[C@@H]1C[C@H]2O[C@@H]2/C=C\C=C\C(=O)Cc2c(Cl)c(O)cc(O)c2C(=O)O1	i	0.52
CCN(c1nc2nc(C)cc(C)n2n1)S(=O)(=O)c1ccc(C)cc1	i	0.9
COCCCNC(=O)CCc1nc(CS(=O)(=O)c2ccccc2)no1	i	0.99
COc1ccc(OC)c(NC(=O)NCCCn2c(-c3ccncc3)nc3cccnc32)c1	i	0.55
Cc1ccc(COC(=O)c2nnn(-c3ccc(C)c(Cl)c3)c2C)cc1	i	1.06
O=C(c1ccc(F)cc1)N1CCc2cc(CNS(=O)(=O)c3ccc(F)cc3)ccc21	i	0.08
CCCS(=O)(=O)c1nc2ccc(NS(=O)(=O)c3ccc(F)c(C)c3)cc2s1	i	-2.05

Taken from above:
COCCCNC(=O)CCc1nc(CS(=O)(=O)c2ccccc2)no1 in Anaer choline gr early is entered as 0.99
CCCS(=O)(=O)c1nc2ccc(NS(=O)(=O)c3ccc(F)c(C)c3)cc2s1 in Anaer choline gr early is entered as -2.05
Cc1ccc(NC(=O)c2cc(C)on2)cc1 in Anaer choline gr early is entered as -1.83

(further entries)
Structure	Anaer choline gr	Anaer choline gr early
CCn1nc(-n2cnnc2)c(NS(=O)(=O)c2ccc(Cl)s2)c1C	i	0.9
COc1ccccc1NC(=O)Cn1c(=O)n(CCCCC(=O)NCCC(C)C)c(=O)c2ccccc21	i	0.41
O=C(CSc1nnc(-c2cc3ccccc3o2)n1-c1ccccc1)Nc1cccc(C(=O)O)c1	i	-0.04
CCc1c(C)sc2c1CCN(C(=O)Nc1ccccc1)C2c1ccccc1 (configuration not stated)	i	-1.34
COc1ccc2cc3c(nc2c1)N(S(=O)(=O)c1ccc2c(c1)OCO2)CC3	i	-0.01
COc1ccc(NC(=O)NCCn2c(C(F)(F)F)nc3cccnc32)c(OC)c1	i	0.02
O=C(C1CCC(=O)N1S(=O)(=O)c1ccccc1)N1CCN(c2cccc(Cl)c2)CC1 (configuration not stated)	i	-0.14
CCc1ccc(C(=O)N2CCN=C2N2CCCC2)cc1	i	-0.38
NS(=O)(=O)c1ccc(CCNc2nccn(-c3ccc4c(c3)OCO4)c2=O)cc1	i	-0.61
Cc1cccc(-c2nc(C3CCN(C(=O)C4CC(=O)N(c5ccc(C)c(C)c5)C4)CC3)no2)c1 (configuration not stated)	i	1.2

(list continues)
Structure	Anaer choline gr	Anaer choline gr early
COCC(=O)Nc1nnc(SCc2cc(=O)n3oc(C)cc3n2)s1	i	-0.17
Cc1nn2c3c(cnc2c1-c1ccc(F)cc1)C(=O)CC(c1ccc(Cl)cc1)C3 (configuration not stated)	i	-0.54
COc1ccccc1N(Cc1nc2nc(C)cc(=O)n2[nH]1)C(=O)C(C)(C)C	i	-0.17
CCCNC(=O)CCCC(=O)n1ncc2cc(C)ccc21	i	0.05
O=C(c1ccc(NC(=O)N2CCCCc3ccccc32)cc1)N1CCOCC1	i	0.88
CNC(=O)c1cnc2scc(C)n2c1=O	i	-0.91
Cc1ccc(Cl)cc1-n1ncc2c(NC(C)C)ncnc21	i	-1.23
COCC(=O)Nc1cccc(-c2cc3ccccc3[nH]2)c1	i	0.89
COc1cc2ncc(C#N)c(Nc3ccc4c(c3)OCO4)c2cc1OC	i	-0.19
COc1ccc(N2CCN(CC(O)c3ccc4c(c3)CCN4C(C)=O)CC2)cc1 (configuration not stated)	i	-1.14

Overlap with the part before: three entries, then new ones.
Structure	Anaer choline gr	Anaer choline gr early
COCC(=O)Nc1cccc(-c2cc3ccccc3[nH]2)c1	i	0.89
COc1cc2ncc(C#N)c(Nc3ccc4c(c3)OCO4)c2cc1OC	i	-0.19
COc1ccc(N2CCN(CC(O)c3ccc4c(c3)CCN4C(C)=O)CC2)cc1 (configuration not stated)	i	-1.14
CCCc1cc(C2CCCN2C(=O)c2cc(-c3ccco3)on2)no1 (configuration not stated)	i	-0.26
CC(NC(=O)C1CCN(c2nc3ccsc3c(=O)n2-c2ccc(F)cc2)CC1)c1ccc(F)cc1 (configuration not stated)	i	0.41
Cc1ccc(C2CC(=O)c3cnc4c(-c5ccc(F)cc5)c(C)nn4c3C2)cc1 (configuration not stated)	i	-0.88
CC(C)Cn1ccnc(N2CCCCC2)c1=O	i	-0.01
O=C(NCCc1ccccc1)N1CCC(N2CCN(Cc3ccccc3)C2=O)C1 (configuration not stated)	i	-0.36
CCOc1ccc(NC(=O)NCCn2c(-c3ccc(F)cc3)nc3ccccc32)cc1	i	2.39
Cc1cccc(N2CCN(C(=O)C3CCN(c4ccc(N5CCOCC5)nn4)CC3)CC2)c1C	i	0.19
O=C(NCc1cccc(Cl)c1)C1CCCN(c2nc3ccccc3n(Cc3ccccc3)c2=O)C1 (configuration not stated)	i	1.35
CC1CC(OC(=O)c2ccccc2O)CC(C)(C)C1 (configuration not stated)	i	0.69
CCCc1ccc(S(=O)(=O)N2CCC(N3CCOCC3)CC2)cc1	i	-0.03

Pulled one by one from the list above (two):
Structure	Anaer choline gr	Anaer choline gr early
O=C(NCc1cccc(Cl)c1)C1CCCN(c2nc3ccccc3n(Cc3ccccc3)c2=O)C1 (configuration not stated)	i	1.35
O=C(NCCc1ccccc1)N1CCC(N2CCN(Cc3ccccc3)C2=O)C1 (configuration not stated)	i	-0.36

More structures.
Structure	Anaer choline gr	Anaer choline gr early
CCN1CCN(CCNC(=O)CN2C(=O)CCCc3ccccc32)CC1	i	0.04
CCOC(=O)c1ccccc1NC(=O)Cn1c(C)cc(C)c(-c2nc(-c3ccc(Cl)cc3)no2)c1=O	i	0.64
CCc1nc(NC(C)c2ccccc2)c2onc(-c3ccc(C)cc3)c2n1 (configuration not stated)	i	2.26
CCCN1CCN(C(=O)CCc2c(C)nn(-c3ccc4nncn4n3)c2C)CC1	i	0.91
Cc1cccc(C)c1NC(=O)c1cc(-c2cccnc2)on1	i	-0.44
COCCn1nnc2cc(S(=O)(=O)N3CCCC3C(=O)NCc3ccc(Cl)cc3)ccc21 (configuration not stated)	i	-0.89
O=C(c1ccc(CN2C(=O)C3CCCN3C(=O)c3ccccc32)cc1)N1CCN(c2ccccn2)CC1 (configuration not stated)	i	-1.02
O=C(C1CCN(c2ccccc2)C1=O)N1CCOCC1 (configuration not stated)	i	0.54
Cc1cccc(-c2nc3nc(CN(C)Cc4ccccc4)cc(=O)n3[nH]2)c1	i	0.87
C1=C(CCNc2nc(-c3nnc(-c4ccccc4)o3)nc3ccccc23)CCCC1	i	0.3

Next results follow:
Structure	Anaer choline gr	Anaer choline gr early
CCOc1ccc(-c2nonc2NC(=O)COc2ccc(Cl)cc2)cc1OCC	i	0.13
CC1CCN(C(=O)c2cc3c(s2)CCC(C(=O)NCCCn2cccn2)C3)CC1 (configuration not stated)	i	0.14
Cc1cc(NC(=O)C2CCCC2)n(-c2ncnc3c2cnn3-c2ccc(F)cc2)n1	i	-1.05
Cc1ccc2ccc3cc(C(=O)N4CCCCC4)nc3c2[nH]1	i	1.48
CNC(=O)N1CCCC(c2cccc(C(=O)N3CCC(N4CCCCC4)CC3)c2)C1 (configuration not stated)	i	-0.34
Cc1ccccc1C(=O)N1CCN(Cc2cc(=O)n3nc(-c4ccccc4)sc3n2)CC1	i	0.4
CCc1ccc(-c2cc3n(n2)CC(C)(C(=O)NC2CCCCC2)N(CC2CCCO2)C3=O)cc1 (configuration not stated)	i	0.02
CC(C)C(=O)N1CCC(c2nc3ccccc3o2)CC1	i	-0.93
COc1ccc(C2CC(=O)C3=C(C2)Nc2ncnn2C3c2ccc(Cl)cc2)cc1 (configuration not stated)	i	0.38
CCOc1ccc(S(=O)(=O)N(CC(=O)N2CCN(c3ccccc3)CC2)c2ccccc2)cc1	i	0.29

Remaining list, next part.
Structure	Anaer choline gr	Anaer choline gr early
CCN(CC)S(=O)(=O)c1cc(-c2nnc(C3CCCC3)o2)co1	i	-1.44
COc1cccc(N2CCN(S(=O)(=O)c3ccc4c(c3)CC(C)N4C(=O)C3CC3)CC2)c1 (configuration not stated)	i	0.11
O=c1ccc(-c2ccccc2)nn1CCc1nc(-c2cccc(Br)c2)no1	i	1.35
CN(Cc1ccccc1)c1ccc(-c2nc(-c3ccccc3)no2)nn1	i	0.02
Cc1nc2cc(-c3noc(-c4cc(Cl)ccc4Cl)n3)ccc2o1	i	-0.6
Cc1ccc2c(=O)c(C(=O)c3ccccc3)cn(CC(=O)Nc3ccc(C)c(F)c3)c2n1	i	2.19
Cc1nc(N=Nc2ccc(C(=O)O)cc2)c(COP(=O)(O)O)c(C=O)c1O	i	0.99
O=C(CCc1nc(CSc2n[nH]c(-c3ccccc3)n2)no1)Nc1ccc(F)cc1	i	-0.7
O=C(NCCC1=CCCCC1)c1ccc(-c2cccnc2)cc1	i	-0.09
Cc1nnc(C(=O)Nc2ccc(C(=O)N3CCN(c4ccccn4)CC3)cc2)s1	i	0.23

The listing continues:
Structure	Anaer choline gr	Anaer choline gr early
CCn1c(SCC(=O)NCC2CCCO2)nnc1-c1cc2ccccc2o1 (configuration not stated)	i	-0.31
Cc1ccc(N2CC(C(=O)Nc3cccc(-c4noc(C)n4)c3)CC2=O)cc1 (configuration not stated)	i	0.98
COc1ccc(C2CC(=O)C3=C(C2)Nc2onc(C)c2C3c2ccc(C(C)C)cc2)cc1OC (configuration not stated)	i	0.88
CCc1ccc(NC(=O)NCCC2CCN(S(=O)(=O)c3ccccc3)CC2)cc1	i	-0.8
O=S1(=O)N(Cc2ccccc2F)CCCN1Cc1ccc(F)cc1Cl	i	1.73
C[C@H]1CC2C3CCC4=CC(=O)C=C[C@]4(C)[C@@]3(Cl)[C@@H](O)C[C@]2(C)[C@@]1(O)C(=O)CO (some centres not stated)	i	-0.03
COc1cc(/C=C/C(N)=O)cc(OC)c1OC	i	-0.07
COc1ccc(-c2nc(CN3CCN(C(=O)c4ccc(N(C)C)cc4)CC3)c(C)o2)cc1	i	-0.09
Cc1nc(-n2[nH]c(C)c(CCC(=O)Nc3ccc(Br)cc3)c2=O)sc1C	i	0.61
CC(C)NS(=O)(=O)c1ccc2[nH]c(=O)[nH]c2c1	i	-1.78

Continuation:
Structure	Anaer choline gr	Anaer choline gr early
Nc1nc2[nH]cc(CCc3ccc(C(=O)N[C@@H](CCC(=O)O)C(=O)O)cc3)c2c(=O)[nH]1	i	-0.12&0.65
O=C(C1=C(Nc2ccc3c(c2)OCCO3)c2ccccc2S1(=O)=O)N1CCOCC1	i	-0.67
COc1ccc(CCNC(=O)CCc2cn(-c3ccccc3)nc2-c2ccc(C)cc2)cc1OC	i	2.57
CCn1c(=O)c(-c2noc(CCC(=O)N3CCOCC3)n2)nn(-c2ccccc2)c1=O	i	-0.76
CN(C)c1nc2ncn3c(=O)n(CC(=O)Nc4cc(F)cc(F)c4)nc3c2s1	i	-2.05
CC(NC(=O)C1CCN(C(=O)N2CCOc3ccc(Cl)cc32)CC1)c1ccccc1 (configuration not stated)	i	-2.41
Cc1ccc(-c2cc(C(=O)N3CCN(c4c(C)n(C)c(=O)n(C)c4=O)CC3)c3ccccc3n2)cc1C	i	0.58
O=C(NCC1CCCO1)Nc1c[nH]c2ccccc2c1=O (configuration not stated)	i	-0.85
O=C1Nc2ccccc2C1Cc1cc2ccccc2o1 (configuration not stated)	i	-1.23
Cc1cc(F)ccc1-n1nnc(C(N)=O)c1C	i	0.22

(cont.)
Structure	Anaer choline gr	Anaer choline gr early
Cn1nc(C(=O)Nc2ccc(Br)cc2)cc1C(F)(F)F	i	-0.43
O=S(=O)(Cc1ccc(Cl)cc1)c1ccc(NCCc2c[nH]c3ccccc23)nn1	i	0.37
CNC(C)(C)c1nnnn1-c1c(C)cccc1C	i	-0.52
CC(=O)NS(=O)(=O)c1ccc(NC(=O)c2ccccc2C(=O)O)cc1	i	-0.22
O=C(Nc1ccc(N2CCN(c3ccccc3F)CC2)cc1C(=O)O)c1ccccc1Cl	i	-1.16
Cc1nc(C)c(C(=O)Nc2ccc(C)c(C)c2)s1	i	0.77
CC(C)OCCCn1c(=O)c2cc(Cl)ccc2n2c(SCc3c(F)cccc3Cl)nnc12	i	-1.91

3 structures already listed, sorted by heavy-atom count, lowest first:
Structure	Anaer choline gr	Anaer choline gr early
Cc1nc(C)c(C(=O)Nc2ccc(C)c(C)c2)s1	i	0.77
Cn1nc(C(=O)Nc2ccc(Br)cc2)cc1C(F)(F)F	i	-0.43
CC(=O)NS(=O)(=O)c1ccc(NC(=O)c2ccccc2C(=O)O)cc1	i	-0.22
